FGF22 binding: FGF22 (human) thermal shift binding | Q9HCT0 | recombinant FGF22 thermal shift, SYPRO orange fluorescence; percent of sucrose octasulfate shift, DMSO zero | calls only at 9.99 µM | 1.5% of 340,000 active;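 active means melting point raised past a set limit in the mean and every replicate; three in four hits are not shown here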
Target sequence (Q9HCT0 whole entry, looked up): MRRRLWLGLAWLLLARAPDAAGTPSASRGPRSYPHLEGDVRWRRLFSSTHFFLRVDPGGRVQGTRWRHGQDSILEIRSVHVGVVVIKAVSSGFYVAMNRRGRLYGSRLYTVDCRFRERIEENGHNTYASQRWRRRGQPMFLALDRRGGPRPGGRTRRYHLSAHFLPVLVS
AF4-AF9 inh: inhibitors of human MLL-AF4/AF9 interaction; P42568; AlphaScreen, biotin-AF4 peptide binding to FLAG-AF9; inhibition, % at 10 µM; 0.47% of 350,000 active;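 active means every replicate reaching a set inhibition limit, whatever the replicate mean, cut at about 25% in these data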;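 further: 0% = plate neutral control median and 100% = total signal loss; the record names both 10 and 1 µM as test concentration; the first replicate is given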
Target sequence (P42568 whole entry, looked up): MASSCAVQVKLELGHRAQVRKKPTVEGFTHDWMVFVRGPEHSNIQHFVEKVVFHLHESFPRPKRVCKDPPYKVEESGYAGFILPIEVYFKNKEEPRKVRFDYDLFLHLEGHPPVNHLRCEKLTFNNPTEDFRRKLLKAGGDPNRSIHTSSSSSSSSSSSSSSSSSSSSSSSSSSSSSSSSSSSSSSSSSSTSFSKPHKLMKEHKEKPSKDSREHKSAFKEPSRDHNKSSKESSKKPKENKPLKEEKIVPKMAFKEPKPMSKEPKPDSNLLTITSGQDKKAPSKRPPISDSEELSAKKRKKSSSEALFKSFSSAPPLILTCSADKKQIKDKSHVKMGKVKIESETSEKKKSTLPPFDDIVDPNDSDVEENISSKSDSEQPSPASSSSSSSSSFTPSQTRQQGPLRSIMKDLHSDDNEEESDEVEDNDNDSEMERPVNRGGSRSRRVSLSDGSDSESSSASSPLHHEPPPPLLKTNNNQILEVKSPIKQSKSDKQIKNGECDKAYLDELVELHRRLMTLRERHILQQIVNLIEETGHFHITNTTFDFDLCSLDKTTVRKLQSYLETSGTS
rRNA inh HTS: selective bacterial rRNA inhibition in E. coli; 1.6% of 350,000 active; GFP signal change (wild-type ribosome), % (test concentration not listed); E. coli WT GFP vs humanized-ribosome RFP mutants, fluorescence, 24 h; stronger effect = lower value; DMSO median 0, no signal -100;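 active means significant combined selectivity score with lowered wild-type GFP, culture density cut under 30%, mutant RFP and density less affected; inactive means any of these conditions unmet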; further: one replicate is shown; some compounds called inactive have numbers as strong as hits
rRNA inh HTS OD600: further read-out of rRNA inh HTS, marked with its call; OD600 change, %; measured here: OD600 growth;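 optical density of the mix in the first replicate; 0 = DMSO median and -100 = no signal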
rRNA inh HTS RFP: second read-out of rRNA inh HTS, no call of its own (marks repeat the call); RFP signal change, %; measured here: RFP humanized mutant strains;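 first replicate; 0 = DMSO median and -100 = no signal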
An asterisk follows results filed as active; i = inactive; & = joins results of further samples. The list is partial; the hit share may differ from the screen's.

Molecule,FGF22 binding,AF4-AF9 inh,rRNA inh HTS,rRNA inh HTS OD600,rRNA inh HTS RFP
C[C@H](CO)N1C[C@H](C)[C@H](CN(C)Cc2ccncc2)Oc2cc(Br)ccc2S1(=O)=O,i,-2.9,-6,2,0.2
COc1ccc(CN2C(=O)C(CC(=O)NC3CCCC3)CC(C(=O)N(C)C)=C2C)cc1 (configuration not stated),i,-2.2,17,21,1.8
CN1CCn2cnc(C(=O)NCc3ccccc3)c2C1=O,i,-3.4,2,0,-5.6
C[C@H](NC(=O)[C@H]1N[C@H]2c3ccc(-c4cncnc4)c(=O)n3C[C@H]2[C@@H]1CO)c1ccccc1,i,0.1,1,2,-2.4
C[C@H]1CN([C@@H](C)CO)S(=O)(=O)c2ccc(-c3cncnc3)cc2O[C@@H]1CN(C)Cc1cccnc1,i,-1.5,-4,-9,-0.5
Cc1noc(C)c1NC(=O)N(C)C[C@@H]1Oc2ccc(NC(=O)c3ccncc3)cc2CC(=O)N([C@@H](C)CO)C[C@@H]1C,i,0.1,6,9,-0.4
Cc1cccc(C)c1NC(=O)Nc1nc(CN(C)C)cs1,i,2.6,7,11,6.4
C[C@@H]1CN([C@@H](C)CO)S(=O)(=O)c2ccc(Br)cc2O[C@@H]1CN(C)C(=O)C1CC1,i,1.7&-0.6&-1.0,-6&2,6&3,-3.7&-3.7
O=C(C1CCCCC1)N1CC2(C1)[C@H](c1ccccc1)[C@H](CO)N2Cc1ccc(Cl)cc1,i,7.4,-25,-59,40
Cc1noc(C)c1NC(=O)Nc1cccc2c1O[C@@H](CN(C)Cc1ccc(Oc3ccccc3)cc1)[C@H](C)CN([C@H](C)CO)C2=O,i,4.9,-9,-11,0.7
C/C=C/c1cnc2c(c1)C(=O)N([C@@H](C)CO)C[C@@H](C)[C@H](CN(C)C(=O)C1CCOCC1)O2,i,-4.8,-4,-4,-1.8
CN(C)C(=O)C[C@H]1CC[C@@H]2[C@H](COC[C@@H](O)CN2Cc2nccs2)O1,i,2.2,6,0,-4.0
C[C@H]1CN([C@@H](C)CO)C(=O)c2cc(C#CC3(O)CCCC3)cnc2O[C@H]1CN(C)C(=O)C1CCCCC1,i,-3.8,2,4,-1.6
CC(=O)NC[C@H]1[C@H](c2ccc(-c3ccccc3)cc2)[C@H](CO)N1C(=O)C1CC1,i,-12,-3,5,0.6
CCCNC(=O)Cn1nc(-c2ccccc2OC)ccc1=O,i,-3.5,12,16,1.9
O=C([C@H]1[C@H](CO)[C@H]2Cn3c(ccc(C4=CCCC4)c3=O)[C@@H]1N2C(=O)c1cccnc1)N1CCOCC1,i,-1.2,0,14,0.4
Cc1ccc(S(=O)(=O)NCC[C@H]2CC[C@H](NC(=O)NC(C)C)[C@H](CO)O2)cc1,i,-14,5,0,-0.5
CC(=O)OCC1OC(n2c(S)c(C#N)c(-c3ccccc3)c(C#N)c2=O)C(OC(C)=O)C(OC(C)=O)C1OC(C)=O (configuration not stated),i,-1.8,1,6,3.9
O=C(C[C@@H]1C[C@H]2c3cc(NC(=O)c4cccnc4)ccc3O[C@H]2[C@H](CO)O1)NCC1CC1,i,-1.3,0,4,-4.2
O=C(C[C@@H]1CC[C@@H]2[C@H](COC[C@@H](O)CN2S(=O)(=O)c2ccccc2)O1)Nc1ccccc1,i,-0.5,1,12,-3.7
O=C(C[C@H]1CC[C@@H]2[C@H](COC[C@@H](O)CN2Cc2cccc(Cl)c2)O1)N1CCOCC1,i,-0.2,4,2,2.0
CCc1ccc(C(O)c2ncc(-c3ccccc3OC)[nH]2)cc1 (configuration not stated),i,1.7,-25,-36,-4.1
CN1C(=O)c2cc(NC(=O)Nc3ccccc3Cl)ccc2OC[C@H]2O[C@H](CC(=O)NCCCN3CCOCC3)CC[C@@H]21,i,1.3,3,5,2.7
Cc1ccccc1S(=O)(=O)NCC[C@H]1CC[C@@H](NC(=O)C2CCOCC2)[C@H](CO)O1,i,-3.3,1,-4,2.5
N#CCCN1CCN(CCC#N)C1=S,i,-0.4,11,9,1.3
O=C(C[C@H]1CC[C@@H]2[C@H](COC[C@@H](O)CN2Cc2nccs2)O1)N1CCC(Cc2ccccc2)CC1,i,-0.3,-4,-13,-2.9
C[C@H]1CN([C@@H](C)CO)C(=O)Cc2cc(NC(=O)C3CCCCC3)ccc2O[C@H]1CN(C)Cc1ccc(-c2ccccc2)cc1,i,0.2,2,3,-0.5
CN(CC(=O)Nc1cccc(S(=O)(=O)N(C)c2ccccc2)c1)Cc1cccs1,i,3.1,-16,-40,-9.0
Cc1ccnc(SC2CC(=O)N(c3ccccc3)C2=O)n1 (configuration not stated),i,-1.0,4,14,1.1
CC(C)C[C@@H]1COc2cccc(N3CCCCC3)c2S(=O)(=O)N1,i,0.1,-13,-21,-6.7

Later entries:
Molecule,FGF22 binding,AF4-AF9 inh,rRNA inh HTS,rRNA inh HTS OD600,rRNA inh HTS RFP
C/C=C/c1ccc2c(c1)O[C@@H](CN(C)C(=O)CN(C)C)[C@@H](C)CN([C@H](C)CO)S2(=O)=O,i,-0.2,-4,-4,-0.8
C[C@@H]1CN([C@H](C)CO)S(=O)(=O)c2ccc(C3=CCCC3)cc2O[C@@H]1CN(C)Cc1ccncc1,i,0.2,-5,-22,-2.1
Cc1cn([C@H]2C[C@H](O)[C@@H](CNCc3ccc(F)c(N4CCOCC4)c3)O2)c(=O)[nH]c1=O,i,-3.5,7,8,-1.4
C[C@H]1CCCCO[C@H](CN(C)S(=O)(=O)c2cn(C)cn2)[C@@H](C)CN([C@@H](C)CO)C(=O)c2cc(NS(=O)(=O)c3ccc(Cl)cc3)ccc2O1,i,-15,-2,1,-1.0
COc1cccc(NC(=O)C[C@@H]2CC[C@@H]3[C@@H](COc4ccc(NC(=O)c5ccccc5F)cc4C(=O)N3C)O2)c1,i,-0.4,-1,-12,3.4
O=C(C[C@H]1CC[C@@H]2[C@H](COC[C@@H](O)CN2Cc2cccc(Cl)c2)O1)Nc1nccs1,i,0.1,0,-5,5.2
COc1ccc(CN(C)C[C@@H]2OCCCC[C@@H](C)Oc3ccc(NC(=O)Nc4ccc(OC)cc4)cc3C(=O)N([C@@H](C)CO)C[C@@H]2C)cc1,i,-1.9,4,-3,3.4
O=C(N[C@@H]1CC[C@H](CCn2cc(-c3ccccn3)nn2)O[C@H]1CO)c1ccc(F)cc1,i,-5.7,3,7,-2.0
O=S(=O)(c1ccccc1F)N1CCCCN2[C@@H](CO)[C@@H](c3ccc(-c4ccccc4)cc3)[C@@H]2C1,i,3.4,-56,-67,-9.1
CN1CCCCN2[C@H](CO)[C@@H](c3ccc(-c4ccccc4)cc3)[C@H]2C1,i,6.6,0,11,-2.7
O=C(CCN1CCCCC1)NCC[C@H]1CC[C@H](NC(=O)C2CC2)[C@@H](CO)O1,i,-0.4,-1,4,-2.4
COc1ccc(C#Cc2ccc([C@H]3[C@@H](CO)N4CCCCN(C(=O)Nc5cccc(F)c5)C[C@@H]34)cc2)cc1,i,-4.6,4,13,2.7
Cc1cc(-c2cc(C)c(N)cc2C)c(C)cc1N,i,4.6,-5,-7,-0.2
Cc1onc(-c2ccccc2)c1NC(=O)OC(C)c1cccnc1 (configuration not stated),i,-5.4,9,8,0.4
C[C@@H]1CN([C@@H](C)CO)S(=O)(=O)c2ccc(C#CCN(C)C)cc2O[C@@H]1CN(C)Cc1ccccc1F,i,6.7,-1,-6,-0.8
CN(C)C(=O)C[C@H]1CC[C@@H](NC(=O)C2CCC2)[C@H](CO)O1,i,-1.7,1,2,-1.9
Cc1cc(NC(=O)COC(=O)c2ccc(Cl)cc2)no1,i,-4.4,9,18,0.0
N#CC(c1ccccc1)C(CC(=O)c1ccccc1)c1ccccc1 (configuration not stated),i,-0.4,-7,-28,-5.4
Cc1ccc(S(=O)(=O)N[C@H]2CC[C@@H](CC(=O)NCCCN(C)C)O[C@H]2CO)cc1,i,-15,4,6,-1.1
COc1cccc(C(=O)Nc2ccc3c(c2)C(=O)N(C)[C@@H]2CC[C@H](CC(=O)NCc4ccccc4F)O[C@H]2CO3)c1,i,3.8,-5,-10,1.2
C[C@@H]1CN([C@@H](C)CO)C(=O)CCCn2cc(nn2)CO[C@H]1CN(C)S(=O)(=O)c1cn(C)cn1,i,1.6&-1.5,1&-3,6&-8,-3.2&-3.0
C[C@H](O)C#Cc1cnc2c(c1)C(=O)N([C@@H](C)CO)C[C@@H](C)[C@@H](CN(C)Cc1ccc(-c3ccccc3)cc1)O2,i,0.5,-1,-3,1.3
CO[C@H]1CC[C@@H]2CCN(C)C(=O)[C@H](C)[C@@H](OC)CN(C)C(=O)c3cc(C#N)ccc3OC[C@@H]1O2,i,9.7,3,5,4.2
C[C@@H]1CCCCO[C@@H](CN(C)C(=O)C2CCCCC2)[C@@H](C)CN([C@H](C)CO)C(=O)c2cc(NC(=O)c3ccncc3)ccc2O1,i,0.5,1,3,0.2
CC1(C(=O)Nc2ccc(Cl)cc2)Cc2c(-c3cccc(C(F)(F)F)c3)ccnc2O1 (configuration not stated),i,-5.8,12,10,6.3
COc1cccc(-c2cnc3c(c2)C(=O)N([C@@H](C)CO)C[C@H](C)[C@H](CN(C)CC2CCOCC2)O3)c1,i,-5.6,4,7,1.5
O=C(C[C@H]1C=C[C@H](NC(=O)c2cccc(F)c2)[C@H](CO)O1)NCc1ccc(Oc2ccccc2)cc1,i,-2.2,-1,-6,1.2
C[C@@H]1CN([C@H](C)CO)S(=O)(=O)c2ccc(C3=CCCCC3)cc2O[C@H]1CN(C)C(=O)Cc1ccncc1,i,11,-3,-4,0.8
C[C@H]1CN([C@@H](C)CO)C(=O)c2cccc(NC(=O)CCCCCC(=O)Nc3ccccc3N)c2O[C@H]1CN(C)C(=O)Nc1cccc2ccccc12,i,-3.0,2,1,2.9
COc1ccc(Br)cc1CN(C)C(=O)c1ccccc1SCC(=O)N1CCCC1,i,-6.5,1,-1,0.0

Later entries:
Molecule,FGF22 binding,AF4-AF9 inh,rRNA inh HTS,rRNA inh HTS OD600,rRNA inh HTS RFP
COc1ccccc1NC(=O)Nc1ccc2c(c1)C(=O)N(C)C[C@H](OC)[C@@H](C)CN[C@H](C)CO2,i,-1.0,-3,1,0.8
Cc1ccc(S(=O)(=O)NCC[C@H]2CC[C@H](NC(=O)c3cccc(F)c3)[C@H](CO)O2)cc1,i,-0.7,-6,-6,1.6
CCC(=O)N1CCC2(CC1)CN(Cc1cccc(Cl)c1)[C@@H](CO)c1c2c2ccc(OC)cc2n1C,i,-3.5,1,-7,-1.6
C[C@H]1CN([C@@H](C)CO)C(=O)c2cc(C#Cc3ccncc3)cnc2O[C@H]1CN(C)CC1CCCC1,i,-1.9,5,10,-1.2
O=C(Nc1ccc2ccccc2c1)C(C1CC1)n1c(=O)c(-c2cc3ccccc3[nH]2)nc2ccccc21 (configuration not stated),i,-32,14,4,2.9
COc1cccc(NC(=O)N[C@H]2CC[C@@H](CC(=O)NCc3ccccn3)O[C@@H]2CO)c1,i,-1.4,1,6,-1.8
O=[N+]([O-])c1ccc(NN=CCCc2ccccc2)nc1,i,4.2,8,12,2.7
C[C@@H]1CN([C@H](C)CO)C(=O)c2cccc(NC(=O)Nc3ccccc3)c2O[C@@H]1CN(C)S(=O)(=O)c1ccccc1,i,-2.2,2,-4,-1.4
COCC(=O)Nc1ccc2c(c1)C(=O)N(C)[C@H]1CC[C@@H](CC(=O)NCC3CCCCC3)O[C@H]1CO2,i,1.0,0,4,-0.6
Cc1ccccc1-c1ccc([C@H]2[C@H]3CN(S(=O)(=O)Cc4ccccc4)CCCCN3[C@H]2CO)cc1,i,4.0,-6,-20,-1.6
CC(=O)N(C)C[C@H]1Oc2ncc(-c3ccc(C#N)cc3)cc2C(=O)N([C@@H](C)CO)C[C@H]1C,i,-4.5,6,10,-1.0
COCC(=O)N(C)C[C@@H]1Oc2cc(C3=CCCCC3)ccc2S(=O)(=O)N([C@@H](C)CO)C[C@H]1C,i,0.6,-2,-16,1.1
